# High-throughput results from PubChem.
# A1 inh – inhibitors of the anti-apoptotic protein A1, read as caspase activation | MEF A1-2A-BIM cells, Caspase-Glo 3/7 luminescence, 3 h; percent of clofoctol response, vehicle zero | caspase activation, % (concentration not given with the values) | hit rate 0.066% among 330,000 | AID 2462;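 active means over half of replicate activation scores above 10%, or exactly half above 10 with the replicate mean above 10; inconclusive means replicate mean below 10 yet half the replicates above 10; inactive means over half of replicates below 10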;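 further: wells of about 30 µL received 50 nL stock; many hits fall short of the cut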
# Calb FLC – C. albicans growth modulation with fluconazole | C. albicans CaCi-2 (fluconazole-resistant clinical isolate) + fluconazole, Alamar Blue growth, 48 h | growth inhibition, % (concentration not given with the values) | hit rate 0.57% among 300,000 | AID 1979;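 active means most replicates above 75%; inconclusive means exactly half above 75%; inactive means most below 75%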;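 further: all wells also contain fluconazole at 8 µg/ml as a sub-toxic cotreatment; 0% = median of DMSO wells and 100% = median of geldanamycin control wells; wells of about 8 µL received 7.5 nL stock; the first replicate is given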
# Beta cell apopt – beta cell apoptosis inhibition. INS-1E cytokine-induced death, ATP luminescence, 48 h; percent of positive-control rescue, neutral wells zero. protection from apoptosis, % (test concentration not listed). hit rate 0.8% among 300,000. AID 435005;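 active means all replicates at 75% or more, or half of them and the mean; inconclusive means half reach 75% but not the mean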;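 further: 0% = cytokine-treated negative control wells and 100% = positive control rescue; higher means more ATP so stronger rescue from cytokine killing; wells of about 40 µL received 100 nL stock; the first replicate is given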
# AF4-AF9 inh – blocks AF4 peptide binding to human AF9. P42568. AlphaScreen, biotin-AF4 peptide binding to FLAG-AF9. inhibition, % at 10 µM. hit rate 0.47% among 350,000;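 active means every replicate reaching a set inhibition limit, whatever the replicate mean, cut at about 25% in these data; inconclusive means mean inhibition reaches that limit but some replicates miss it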;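 further: 0% = plate neutral control median and 100% = total signal loss; the record names both 10 and 1 µM as test concentration; the first replicate is given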
# LANA-H2A inh – blocks KSHV LANA binding to histone H2A/H2B. cell-free LANA-H2A/H2B peptide, fluorescence polarization. inhibition, % (concentration not given with the values). hit rate 0.6% among 320,000; in the data active means inhibition mostly above about 10%, no sharp cut-off; inactive means mostly below about 6.7%;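 further: stock transfer was 7.5 nL into about 10 µL; 0% = median of vehicle wells and 100% = median of positive control wells; one replicate is shown; the record names a cut of 25% in any replicate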
# Target sequence (Q9QR71 whole entry, looked up): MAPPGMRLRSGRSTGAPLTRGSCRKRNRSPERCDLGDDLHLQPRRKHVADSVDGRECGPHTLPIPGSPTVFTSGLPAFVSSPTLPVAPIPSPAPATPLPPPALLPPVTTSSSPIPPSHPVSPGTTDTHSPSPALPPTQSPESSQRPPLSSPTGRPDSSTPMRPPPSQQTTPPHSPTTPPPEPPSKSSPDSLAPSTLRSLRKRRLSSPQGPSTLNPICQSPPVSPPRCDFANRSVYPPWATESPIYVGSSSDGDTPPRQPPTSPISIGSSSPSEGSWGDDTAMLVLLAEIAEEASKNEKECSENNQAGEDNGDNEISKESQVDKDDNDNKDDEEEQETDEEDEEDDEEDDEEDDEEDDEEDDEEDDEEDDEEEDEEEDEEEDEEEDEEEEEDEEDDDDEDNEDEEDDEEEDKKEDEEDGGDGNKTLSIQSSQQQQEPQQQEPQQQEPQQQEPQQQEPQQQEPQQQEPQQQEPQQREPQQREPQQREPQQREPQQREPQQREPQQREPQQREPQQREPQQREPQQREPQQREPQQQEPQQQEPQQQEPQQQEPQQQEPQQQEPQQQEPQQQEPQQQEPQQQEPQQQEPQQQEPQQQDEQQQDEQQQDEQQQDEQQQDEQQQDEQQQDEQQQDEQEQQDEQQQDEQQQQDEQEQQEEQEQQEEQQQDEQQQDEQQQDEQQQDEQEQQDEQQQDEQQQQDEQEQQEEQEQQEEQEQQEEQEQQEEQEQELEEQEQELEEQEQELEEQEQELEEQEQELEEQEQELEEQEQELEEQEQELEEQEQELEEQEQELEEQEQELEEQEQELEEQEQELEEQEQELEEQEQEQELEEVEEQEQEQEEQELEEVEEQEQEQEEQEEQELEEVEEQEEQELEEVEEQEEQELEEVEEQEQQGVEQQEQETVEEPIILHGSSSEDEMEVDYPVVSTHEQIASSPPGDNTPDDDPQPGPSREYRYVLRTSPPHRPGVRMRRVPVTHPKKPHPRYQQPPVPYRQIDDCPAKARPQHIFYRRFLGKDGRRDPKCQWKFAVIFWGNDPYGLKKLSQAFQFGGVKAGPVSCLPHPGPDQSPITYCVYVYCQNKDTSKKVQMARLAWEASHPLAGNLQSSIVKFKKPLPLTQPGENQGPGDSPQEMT
# Vif A3G – inhibitors of Vif binding to APOBEC3G peptide, primary screen, biochemical, TR-FRET, GST-Vif 1-94, biotin-A3G peptide, dose response retest (AID 1117319); TR-FRET GST-Vif / biotin-A3G peptide binding; higher % means a stronger effect; test concentration not given here; strong numbers were not always called active; hit rate 0.57% among 260,000; inhibition, %, or IC50 in µM where a hit was titrated;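 active means above the screen mean plus three standard deviations and confirmed in dose response; inconclusive means results disagree or hit not tested in dose response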;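 further: Vif residues 1-94 fused to GST binding biotinylated APOBEC3G peptide 110-148; 0% = full assay without inhibitor and 100% = GST in place of GST-Vif; retest series ran down from 100 µM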
# T cruzi repl – T. cruzi replication inhibition | T. cruzi beta-gal in NIH3T3, luminescence, 90 h | inhibition, % (concentration not given with the values) | hit rate 1.4% among 300,000;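 active means mean inhibition across valid replicates above about 55%, limit read from the data; inconclusive means mean below that limit but half or more replicates reach it; inactive means mean below it, under half of replicates reach it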;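 further: signal also drops with host cell toxicity which is not excluded here; 0% = plate median of DMSO wells and 100% = zero luminescence signal; higher percent means less beta-gal luminescence so fewer parasites; stock transfer was 50 nL into about 50 µL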
# RanGTP-Impb inh – disruptors of Ran-importin-beta complex formation – biochemical, FRET, CFP-Ran, YFP-importin-beta, homogeneous, primary screen; AID 2216; cell-free CFP-Ran/YFP-importin-beta FRET ratio; inhibition, % (concentration not given with the values); hit rate 1.1% among 300,000;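 active means most replicates above 15%; inconclusive means exactly half above 15%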;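 further: 0% = DMSO wells and 100% = Ran loaded with GDP instead of GTP; wells of about 40 µL received 100 nL stock; the first replicate is given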
# * hit, by the source's call; ? = inconclusive; . = no result given; & = joins results of further samples. The order is random; overall some 4.3% were active at least once.
nr | SMILES | Beta cell apopt | T cruzi repl | AF4-AF9 inh | Calb FLC | RanGTP-Impb inh | Vif A3G | LANA-H2A inh | A1 inh
1 | C/C(CC(=O)Nc1ccc([N+](=O)[O-])cc1)=N/NC(=O)C1C2CCCCC21 (stereo not drawn) | 1 | -6 | 2.3 | -5 | 2.4 | -1% | 6.3 | 0.0
2 | O=C(Cn1cnc2c(nnn2-c2ccccc2)c1=O)N1CCOCC1 | -2 | -15 | 5.0 | -2 | 7.7 | -2% | -12 | 0.1
3 | CCC(=O)N1CCC2(CC1)Oc1ccc(Cl)cc1C(=O)C21CC(c2cccnc2)=NO1 (stereo not drawn) | -4 | 2 | -3.8 | 5 | -2.2 | 3% | -4.5 | 0.3
4 | CCOC(=O)C1CCCc2c1[nH]c1c(C(N)=O)cccc21 (stereo not drawn) | -2 | -9 | . | 5 | 25* | 5% | -1.3 | -0.1
5 | CCOc1ccc(Cn2nnc(C(=O)Nc3ccc(OC)cc3OC)c2N)cc1 | -6 | 8 | -7.4 | -1 | 0.4 | 2%&-4% | -0.9 | -1.1
6 | Cc1cnc(C(=O)OC(C)C(=O)Nc2ccccc2-c2ccccc2)cn1 (stereo not drawn) | -4 | -5 | -0.9 | 8 | ? | 5% | -7.3 | -0.3
7 | CCOc1ccc2oc(C(=O)NNC(=O)c3csc(N4CCOCC4)n3)c(C)c2c1 | 8 | 14 | 0.1 | 21 | -0.8 | . | -2.7 | -0.9
8 | CN(c1ccc(C(=O)NC2CC3CCC2C3)cc1)S(C)(=O)=O (stereo not drawn) | -12 | -2 | . | -3 | -2.1 | 7% | 1.8 | -1.0
9 | O=C(NCc1cccnc1)c1cccc(S(=O)(=O)NCc2ccccc2)c1 | 3 | 1 | 15 | 0 | 0.5 | -6% | -4.9 | -0.6
10 | CCCn1c(N)c(C(=O)CSc2nnc(N)s2)c(=O)[nH]c1=O | -4 | . | -2.8 | . | . | 23% | -0.6 | -0.3
11 | O=S(=O)(c1ccccc1)c1nc(-c2ccco2)oc1NCCCN1CCOCC1 | 2 | 2 | . | -1 | -2.2 | 10%&-7% | -0.4 | -0.3
12 | Cc1ccc(-c2cc(C(F)F)n3ncc(C(=O)N4CCN(c5ccccn5)CC4)c3n2)cc1 | 6 | 60* | 14 | -2 | 7.7 | -1% | -0.8 | 0.2
13 | COc1ccc(S(=O)(=O)NC(CC(=O)NCC2CCCO2)c2ccco2)cc1 (stereo not drawn) | -1 | -3 | . | -2 | -1.9 | -7%&0% | 2.7 | -0.4
14 | COc1ccc(Cl)cc1NC(=O)c1[nH]nc(OC)c1[N+](=O)[O-] | 5 | 35 | -5.1 | 15 | 0.4 | 10% | -1.6 | 0.7
15 | Cc1cccc(-n2c(C)cc(/C=N/NC(N)=S)c2C)c1 | -3 | 21 | . | -11 | ? | 3% | 0.3 | 0.4
16 | O=C(NCCS(=O)(=O)N1CCN(c2ccc(F)cc2)CC1)c1ccc2c(c1)OCO2 | . | -12 | -1.7 | -8 | -2.7 | -1% | 5.6 | -0.2
17 | CCS(=O)(=O)Nc1ccc(C2=NN(C(C)=O)C(c3cccs3)C2)cc1 (stereo not drawn) | 5 | -13 | 1.3 | -9 | 1.8 | ? | -1.7 | 0.3
18 | COC(=O)C1=C(CSCc2ccco2)NC(=O)NC1c1cc(C)ccc1C (stereo not drawn) | 1 | 6 | . | 3 | 1.4 | 7% | 2.1 | -0.1
19 | O=C1NC2CCc3nc4ccccc4c(=O)n3C2=Nc2ccccc21 (stereo not drawn) | -11 | 7 | -3.0 | 10 | -0.3 | . | 5.1 | 0.8
20 | Cc1cc(SCC(=O)N/N=C/c2ccco2)nc2ccccc12 | . | 10 | 1.7 | -6 | 0.0 | . | -6.1 | 1.9
21 | Cc1ccc(NC(=O)NNC(=O)c2cc3ccccc3cc2O)cc1C | 4 | 2 | -0.1 | 81* | 1.5 | . | -3.1 | -0.2
22 | O=C(CNCc1ccccc1Cl)Nc1ccc(C(=O)N2CCCCC2)cc1 | 5 | 4 | -2.7 | 25 | 4.6 | . | 8.0 | 1.4
23 | CCN(CCO)c1ccc(-n2c(N)c(C(=O)OC)c3nc4ccccc4nc32)cc1 | -7 | -6 | . | -7 | -0.1 | 19% | 2.9 | -0.6
24 | O=C(COC(=O)Cc1ccc(Cl)c(Cl)c1)NCc1ccco1 | . | -17 | ? | 5 | 2.4 | 7% | -1.5 | 0.3
25 | O=C(N/N=C/c1ccc(OC(=O)c2ccco2)cc1)c1ccc[n+]([O-])c1 | 0 | -4 | -1.7 | 4 | 1.7 | . | 1.8 | -3.3
26 | CS/C(=N\S(=O)(=O)c1cccs1)Nc1ccc(Br)cc1F | 7 | -22 | -3.4 | 101* | 4.7 | -2% | -1.4 | 1.6
27 | Cc1ccc(C2CC(c3ccco3)n3ncnc3N2)cc1 (stereo not drawn) | 2 | -7 | -2.7 | 8 | 0.5 | -4% | 0.2 | -1.9
28 | CCC(=O)Nc1nc2ccccc2n1Cc1ccccc1C | 15 | 45 | . | 3 | -2.4 | -4% | -7.3 | 0.5
29 | O=C(NCCc1ccccc1)c1cc(S(=O)(=O)N2CCOCC2)ccc1F | 5 | -1 | . | -10 | 3.5 | 22% | 4.8 | 0.0
30 | Cc1cc(C)cc(C(=O)n2cnnc2N)c1 | -4 | -13 | . | 7 | 3.5 | 2% | -4.0 | -0.3
31 | CCOc1ccc(Nc2nc3ccccc3n3nnnc23)cc1 | 6 | 1 | -1.7 | 17 | ? | >100µM* | 2.0 | 0.0
32 | COc1cccc(-c2nc(CS(=O)CC(=O)NC3CC3)c(C)o2)c1 (stereo not drawn) | -4 | -3 | -10 | -5 | ? | 18% | 0.3 | .
33 | CN(C)S(=O)(=O)c1ccc(S(=O)(=O)NCCN2CCOCC2)cc1 | -5 | -3 | 0.4 | 4 | 0.9 | ? | -2.2 | 0.9
34 | COc1ccc(-c2cc(=O)c3cc(C)ccc3[nH]2)cc1 | 12 | -25 | 3.7 | -3 | 5.8 | 7% | 1.0 | -8.8
35 | CCOc1ccc(C/C(O)=C2\C(=O)CC(C)(C)CC2=NCC(=O)O)cc1OCC | -2 | -5 | -4.8 | -23 | -2.8 | 2% | -2.4 | 0.1
36 | O=C(CNC(=O)c1ccc(Br)o1)NCc1ccccc1Cl | -3 | -6 | -1.5 | -1 | -1.2 | 0% | 3.6 | -0.2
37 | COc1ccccc1NC(=O)CSc1nnc(-c2ccoc2C)n1CC1CCCO1 (stereo not drawn) | -4 | -10 | . | -6 | 0.5 | 11% | -2.1 | 0.5
38 | Clc1cccc(-c2sc(Nc3ccccc3)n[n+]2-c2ccccc2)c1Cl | -7 | 3 | . | 20 | 5.0 | . | -1.7 | 0.2
39 | Cc1noc(/C=C/N(C)C)c1S(=O)(=O)NC1CCCCC1 | -2 | -2 | . | 6 | 1.3 | 11% | -0.3 | 0.6
40 | COc1ccc(-c2n[nH]c(=S)n2-c2ccc(C)cc2)cc1 | 0 | 2 | -9.9 | 7 | 0.7 | -6% | 2.4 | -0.4
41 | COc1ccc(S(=O)(=O)Nc2cc(C)on2)cc1NC(C)=O | -2 | . | 0.1 | . | . | -1% | -2.8 | 1.1
42 | O=C(NC(=S)Nc1ccccc1O)c1ccc(-c2ccc(Cl)cc2)o1 | -14 | -11 | . | 4 | -4.8 | 7% | -1.5 | 0.8
43 | CCN1CCN(CC(=O)Nc2ccccc2)C(=O)C1=O | . | -3 | 1.6 | 5 | 7.0 | -1% | 1.3 | 0.6
44 | CCC(=O)Nc1cccc(-c2cc3ccccc3oc2=O)c1 | -1 | -6 | -0.9 | 24 | 4.1 | 9% | -4.7 | -0.5
45 | O=C(CSc1nnnn1C1CCCCC1)Nc1ccccc1F | -1 | -3 | -1.3 | -3 | 7.1 | -3% | -1.8 | 1.0
46 | N#Cc1ccc(-c2csc(NC(=O)c3ccc(S(=O)(=O)N4CCc5ccccc5C4)cc3)n2)cc1 | -4 | -5 | 3.5 | -3 | 1.4 | -17% | 4.0 | -2.1
47 | C/C=C/c1ccc(OCCCCN2CCC(C)CC2)c(OC)c1 | -4 | 39 | 5.6 | -13 | 2.2 | -19% | -0.1 | 0.0
48 | Fc1cccc(C[n+]2csc3ccccc32)c1 | 8 | 55* | . | 13 | 5.2 | 8% | 4.3 | -0.8
49 | CN(C)S(=O)(=O)c1ccc(N2CCCC2)c(C(=O)NNC(=O)COc2cccc(F)c2)c1 | 0 | . | -0.5 | . | . | -4% | -0.5 | 1.0
50 | Oc1ccccc1/C=N/c1c(-c2ccco2)nc2ccccn12 | 0 | -6 | . | 9 | ? | 0.48µM* | -0.8 | -0.8

# Additional structures follow.
nr | SMILES | Beta cell apopt | T cruzi repl | AF4-AF9 inh | Calb FLC | RanGTP-Impb inh | Vif A3G | LANA-H2A inh | A1 inh
51 | CCn1ccc(C(=O)Nc2ccccc2SC)n1 | -1 | -1 | -3.5 | -2 | 4.9 | -5% | 1.7 | -2.7
52 | COc1ccc(C(=O)Nc2ccc(N3CCN(C(C)=O)CC3)cc2)cc1[N+](=O)[O-] | -7 | 3 | -1.9 | -5 | -1.2 | 8% | -5.3 | 0.7
53 | O=C(c1cnn2c(C(F)(F)F)cc(-c3ccc4c(c3)OCO4)nc12)N1CCCC1 | -2 | 1 | . | -2 | -2.6 | -5% | -5.1 | -0.3
54 | Cc1ccc(N(CC(=O)NC(C)(C)C)C(=O)CCC(=O)Nc2nccs2)c(C)c1 | -10 | 11 | -1.1 | -5 | 1.4 | . | 1.2 | 0.5
55 | Cc1cc(C)c2oc(C(=O)Nc3nnc(C(C)C)s3)cc(=O)c2c1 | 5 | -3 | -4.5 | ? | 2.2 | 0% | 3.7 | -0.3
56 | Cc1cc(C(=O)CSc2nnc(-c3ccccc3F)o2)c(C)n1Cc1cccs1 | -5 | -5 | . | -16 | 0.2 | 17% | -1.8 | 0.4
57 | CCN(c1ccccc1)S(=O)(=O)c1ccc(OC)c(NC(=O)CCc2nc3ccccc3c(=O)[nH]2)c1 | . | 4 | -1.3 | -7 | 0.7 | 2% | -1.8 | 0.2
